VDR inhibitor – inhibitors of human vitamin D receptor. P11473. VDR-SRC2-3 peptide fluorescence polarization, 2 h. Potency, µM, inactives show max response, negative = inhibition, usual class: inhibitors. hit rate 0.93% among 400,000; active = well fitted inhibition curve with a large enough effect; inconclusive = small, poorly fitted or top-dose-only effect, or another doubt; inactive = no such curve, though single readings can be large or run the other way; also: series mostly up to about 120 µM
Target sequence (P11473 whole entry, looked up): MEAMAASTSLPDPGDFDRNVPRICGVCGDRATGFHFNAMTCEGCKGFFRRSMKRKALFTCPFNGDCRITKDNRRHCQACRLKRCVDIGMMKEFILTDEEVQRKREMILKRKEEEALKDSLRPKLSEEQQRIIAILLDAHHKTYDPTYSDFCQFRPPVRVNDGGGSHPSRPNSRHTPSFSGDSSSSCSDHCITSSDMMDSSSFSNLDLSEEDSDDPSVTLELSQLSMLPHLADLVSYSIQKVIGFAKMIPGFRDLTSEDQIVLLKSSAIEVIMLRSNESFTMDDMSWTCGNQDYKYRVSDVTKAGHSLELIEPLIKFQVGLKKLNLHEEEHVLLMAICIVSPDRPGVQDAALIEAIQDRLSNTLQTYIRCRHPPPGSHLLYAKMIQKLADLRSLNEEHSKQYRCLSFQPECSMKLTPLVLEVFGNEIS
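Measured by FP: displacement of SRC2-3 coactivator peptide from VDR by library compounds, following a two-hour ambient incubation.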
An asterisk follows results filed as active; ? = inconclusive; & = joins results of further samples. % is scaled to controls: 0 for no effect and ±100 for the full control effect; potency is read from the fitted curve at half-maximal effect. Only part of the results is shown; rates above refer to the full screens.

The opening 15 compounds as a preview:
no.	canonical_smiles	VDR inhibitor
1	O=C(CNC(=O)C12CC3CC(CC(C3)C1)C2)N/N=C\c1ccco1	-14%
2	C[C@H](O)[C@@H](C(=O)N1CCN(C(=O)OC(C)(C)C)CC1)n1cc(CCCCNC(=O)OC(C)(C)C)nn1	14%
3	O=C(C1CC(=O)N(c2ccc(F)cc2)C1)N1CCN(c2ccccc2)CC1 (stereo not given)	?
4	CN(C)S(=O)(=O)c1ccc(C(=O)Nc2nnc(Cc3ccccc3)s2)cc1	-8%
5	Cc1noc(C)c1COc1ccc(C(=O)NCC2CCCO2)cc1 (stereo not given)	-13%
6	Cc1cc(C)c(CN2CCN(CCCn3cnc(C(=O)Nc4ccc(C)c(C)c4)n3)CC2)c(C)c1	-22%
7	CSc1ccc(CCNC(=O)C2CCCN(c3nn4c(=O)cc(C)nc4s3)C2)cc1 (stereo not given)	2%
8	O=C(CN1C(=O)NC2(CCCC2)C1=O)N1CCCSC1=Nc1ccccc1	2%
9	COc1ccc(CC(=O)NCc2cccs2)cc1	-1%
10	COc1c(F)c(F)cc2c(=O)c(C(=O)O)cn(C3CC3)c12	8%
11	CCOC(=O)c1c(C)c(C(=O)Nc2ccc3c(c2)OCO3)c(C)n1C	1%
12	Clc1ccc(Nc2ncn[nH]2)c(Cl)c1	7%
13	Nc1ccc(-c2nc3ncccc3o2)c(Cl)c1	2%
14	Cc1ccc2sc(N3CCN(C(=O)C4=COCCO4)CC3)nc2c1C	-6%
15	O=C(NC(=S)Nc1cccc([N+](=O)[O-])c1)C1CCCC1	-5%

The listing, from the start:
no.	canonical_smiles	VDR inhibitor
1	O=C(CNC(=O)C12CC3CC(CC(C3)C1)C2)N/N=C\c1ccco1	-14%
2	C[C@H](O)[C@@H](C(=O)N1CCN(C(=O)OC(C)(C)C)CC1)n1cc(CCCCNC(=O)OC(C)(C)C)nn1	14%
3	O=C(C1CC(=O)N(c2ccc(F)cc2)C1)N1CCN(c2ccccc2)CC1 (stereo not given)	?
4	CN(C)S(=O)(=O)c1ccc(C(=O)Nc2nnc(Cc3ccccc3)s2)cc1	-8%
5	Cc1noc(C)c1COc1ccc(C(=O)NCC2CCCO2)cc1 (stereo not given)	-13%
6	Cc1cc(C)c(CN2CCN(CCCn3cnc(C(=O)Nc4ccc(C)c(C)c4)n3)CC2)c(C)c1	-22%
7	CSc1ccc(CCNC(=O)C2CCCN(c3nn4c(=O)cc(C)nc4s3)C2)cc1 (stereo not given)	2%
8	O=C(CN1C(=O)NC2(CCCC2)C1=O)N1CCCSC1=Nc1ccccc1	2%
9	COc1ccc(CC(=O)NCc2cccs2)cc1	-1%
10	COc1c(F)c(F)cc2c(=O)c(C(=O)O)cn(C3CC3)c12	8%
11	CCOC(=O)c1c(C)c(C(=O)Nc2ccc3c(c2)OCO3)c(C)n1C	1%
12	Clc1ccc(Nc2ncn[nH]2)c(Cl)c1	7%
13	Nc1ccc(-c2nc3ncccc3o2)c(Cl)c1	2%
14	Cc1ccc2sc(N3CCN(C(=O)C4=COCCO4)CC3)nc2c1C	-6%
15	O=C(NC(=S)Nc1cccc([N+](=O)[O-])c1)C1CCCC1	-5%
16	Cc1cc(NC(=O)Nc2cccc(C)c2C)no1	28%
17	COc1cccc(N=Cc2c(O)c3ccccc3oc2=O)c1	15%
18	Cc1onc(-c2ccccc2Cl)c1C(=O)Nc1ccc2c(c1)OCO2	-2%
19	COc1ccc(C2NC(=O)N(C)C3=C2C(=O)N(c2ccc(F)cc2)C3)cc1 (stereo not given)	-1%
20	COCCNC(=O)c1cc2c(-c3ccc(Cl)cc3)nn(C)c2s1	-17%
21	O=C(Cc1c[nH]c2ccccc12)NC1(C(=O)NC2CCCCC2)CCCCC1	-11%
22	COc1cc(-c2nnc(SCC(=O)Nc3cccc(C#N)c3)o2)cc(OC)c1OC	9%
23	Cc1cnc(C(=O)OCc2csc(CC(=O)Nc3ccccc3C)n2)cn1	22%
24	OCCCNc1ncnc2c1cnn2-c1ccc(Cl)cc1	-10%
25	O=C(CN(C(=O)CCC(=O)Nc1ccccn1)c1ccc2c(c1)OCCO2)NCCc1ccccc1	-10%
26	Cc1ccc(OCCCC(=O)Nc2nc3ccccc3[nH]2)cc1	2%
27	CC(=O)N1CCN(CC(=O)Nc2ccc(Cl)c(S(=O)(=O)N(C)C)c2)CC1	1%
28	COc1ccccc1N1CCN(C(=O)c2ccc([N+](=O)[O-])s2)CC1	-14%
29	CC1CCCN(C(=O)c2sc3cc([N+](=O)[O-])ccc3c2Cl)C1 (stereo not given)	-2%
30	COc1ccc(CCNC(=S)NC(=O)c2cccc([N+](=O)[O-])c2)cc1OC	1%
31	Cc1cc(C)c(-c2csc(NC(=O)C3=COCCO3)n2)c(C)c1	0%
32	CS(=O)(=O)c1ccc2nc(NC(=O)c3ccc(NS(=O)(=O)c4ccc(F)c(F)c4)cc3)sc2c1	-7%
33	CN(CC(=O)Nc1ccccc1C(=O)NC1CC1)Cc1ccc(N(C)C)cc1	5%
34	O=C(CSc1nc2ccsc2c(=O)n1Cc1ccccc1F)NCc1ccccc1Cl	-4%
35	CC(C)(C)c1cc(CCC(=O)NCc2cccnc2)cc(C(C)(C)C)c1O	15%
36	CCOC(=O)c1c(CN2CCOCC2)oc2ccc(OC(C)=O)cc12	-17%
37	Nc1nonc1-n1nnc(C(=O)N/N=C/c2cccnc2)c1CSc1ccccc1	7%
38	Cc1nn(C)c2c1c(-c1ccccc1)cc(=O)n2C(C)C(=O)NCc1ccc(F)cc1 (stereo not given)	-2%
39	NCC(c1ccco1)c1c[nH]c2ccccc12 (stereo not given)	-5%
40	Cc1c(Cl)cccc1NC(=O)CCN1CCOCC1	-13%
41	O=C(Oc1ccccc1N1C(=O)C2CCCCC2C1=O)c1ccc(Cl)cc1 (stereo not given)	-3%
42	COc1ccccc1OCCNc1nc2c(c(=O)n(C)c(=O)n2C)n1C	?
43	Cc1sc2nc(CSCC(=O)Nc3c(F)cccc3F)[nH]c(=O)c2c1C	-24%
44	CCOC(=O)Cn1c(=O)oc2cc(S(=O)(=O)N3CCN(C(=O)OCC)CC3)ccc21	19%
45	Cc1ccccc1-n1nnnc1SCc1csc(-c2ccccc2)n1	-8%
46	Cc1ccc(C)c(NC(=O)C[n+]2ccccc2)c1	3%
47	CCc1cccc(CC)c1NC(=O)C(CC)Sc1nc2ccncc2[nH]1 (stereo not given)	-17%
48	NC(=O)C1C(=O)c2ccccc2C1(C[N+](=O)[O-])c1ccccc1 (stereo not given)	-8%
49	CC(=O)c1ccc(NC(=O)CN2CCN(CC(=O)Nc3ccc(C(C)=O)cc3)CC2)cc1	11%
50	Cc1occc1-c1nnc(SCC(=O)c2ccc3c(c2)OCCO3)n1CC1CCCO1 (stereo not given)	?
51	COc1ccc(-c2nc3ccccc3c(=O)n2CCOc2cc(C)ccc2C)cc1	-17%
52	Cc1cnc(C(=O)Nc2ccccc2-n2cccc2)cn1	3%
53	O=C(NCc1ccccc1F)C(=O)NCC(c1ccco1)S(=O)(=O)c1ccccc1 (stereo not given)	17%
54	CCCCNC(=O)COC(=O)CCC(=O)c1cccs1	-1%
55	CCOc1cc(S(=O)(=O)NCc2ccc(OC)cc2)c(OCC)cc1-n1cnnn1	14%
56	Cc1ccc(-c2nc(C)c(CCNC(=O)c3cccs3)s2)cc1	-10%
57	COc1ccc(S(N)(=O)=O)cc1C(=O)OCCCOc1ccc(F)cc1	-8%
58	Clc1cccc(NCc2nnc3n2CCCCC3)c1	5%
59	COCCn1c(N)c(N(Cc2ccccc2)C(=O)C2CCCC2)c(=O)[nH]c1=O	-4%
60	O=C(Nc1cccc(S(=O)(=O)N2CCOCC2)c1)C1CC(=O)N(c2ccc3c(c2)OCCO3)C1 (stereo not given)	-8%

Next results follow.
no.	canonical_smiles	VDR inhibitor
61	CSCCC(NS(=O)(=O)c1c(Cl)cccc1Cl)C(=O)O (stereo not given)	-11%
62	Cc1c(C(=O)O)oc2ccc(S(=O)(=O)NCCC3=CCCCC3)cc12	6%
63	CCOc1ccc(-c2ccc(SCC(=O)Nc3nnc(C)s3)nn2)cc1	-1%
64	CCN(CCCNC(=O)C1c2ccccc2C(=O)N(CCOC)C1c1ccc(F)cc1)Cc1ccccc1 (stereo not given)	-10%
65	C/C(=N\Nc1ncc(Br)cn1)c1cccc([N+](=O)[O-])c1	7%
66	O=C(C1=C[C@H](c2ccc3c(c2)OCO3)C[C@H](OCc2ccc(CO)cc2)O1)N1CCCCCCC1	-1%
67	CCCCC(CC)CNC(=O)c1ccc2c(=O)n(CCOC)c(=O)[nH]c2c1 (stereo not given)	-1%
68	NS(=O)(=O)c1ccc(CCNC(=O)CN2CCCCCC2)cc1	-2%
69	Cc1ccc(-c2nc(CSCC(=O)NCc3cccnc3)c(C)o2)cc1	17%
70	N=C(N)SCc1ccc(Cl)cc1Cl	-2%
71	COC(=O)c1ccccc1NC(=O)c1nc(SCc2ccccc2C)ncc1Cl	8%
72	COCCCNC(=O)CN(CCc1ccccc1)S(=O)(=O)c1ccc(OC)cc1	-7%
73	S=C(NCc1ccccc1)Nc1ccc2ccccc2c1	-1%
74	CCCCCCn1c(CN2CCN(C(=O)OCC)CC2)nc2c1c(=O)n(C)c(=O)n2C	2%
75	COCc1nnc(SCC(=O)NCc2ccccc2)n1-c1ccccc1	0%
76	CCCCNC(=S)NNC(=O)c1csc2c1CCC(C)C2 (stereo not given)	-3%
77	CCOc1ccccc1C1CC(c2ccccc2)Nc2nc(N)nn21 (stereo not given)	-15%
78	COc1ccc(COC(=O)C2CCN(S(=O)(=O)c3ccc(OC)c(OC)c3)CC2)cc1	-2%
79	CCOC(=O)C1CCN(Cc2cc(=O)oc3c(C)c(C)ccc23)CC1	8%
80	COc1ccccc1NC(=O)c1ccc([N+](=O)[O-])cc1[N+](=O)[O-]	17%
81	Cc1ccc(C)c(N(CC(=O)N2CCc3ccccc3C2)S(C)(=O)=O)c1	-9%
82	COc1ccccc1N1C(=O)C2C3C=CC(CC3)C2C1=O (stereo not given)	-22%
83	O=C(CSc1nnc2scc(-c3ccccc3)n12)N1CCCc2ccccc21	-8%
84	O=C(COC(=O)c1ccc(O)cc1O)Nc1ncc(Cl)cc1Cl	23%
85	O=C(CCCc1nc(-c2ccc(Cl)cc2)no1)NCc1ccco1	13%
86	Cc1cc(C)nc(NC(=S)Nc2cccc(Cl)c2Cl)c1	-9%
87	Cc1ccccc1-n1c(C)nnc1SCc1cc(=O)oc2ccc3ccccc3c12	-6%
88	COc1ccccc1N1CCN(C(=O)c2cc(S(=O)(=O)N3CCC(C)CC3)cn2C)CC1	16%
89	O=C(COC(=O)C1(c2ccccc2)CC1)NNC(=O)c1ccccc1F	-18%
90	COc1ccc([N+](=O)[O-])cc1NC(=O)COC(=O)/C=C/c1ccco1	-4%
91	Cn1c(=O)c2c(ncn2CC(=O)OCC(=O)c2ccc(Cl)cc2)n(C)c1=O	10%
92	O=C(COC(=O)CNC(=O)C1CCCCC1)NCc1ccc(Cl)cc1	9%
93	CC(C)N1CCc2c(sc(NC(=O)c3ccc4ccccc4c3)c2C(N)=O)C1	11%
94	CCOc1ccccc1N1CC(C(=O)Nc2ccc3c(c2)OCCO3)CC1=O (stereo not given)	3%
95	COC(OC)c1ccnc(-c2ccc(OC(C)=O)cc2)n1	-14%
96	CC1CCCN(Cc2nc(Cc3ccccc3Cl)no2)C1 (stereo not given)	-1%
97	COc1ccc(-n2[nH]c3c4c(ncc3c2=O)CCCCC4)cc1	4%
98	Cc1ccc(NC(=O)Cn2nc(-c3ccccc3Cl)ccc2=O)c(Br)c1	-1%
99	CC(=O)c1ccc(NC(=S)NCCc2ccc(S(N)(=O)=O)cc2)cc1	-1%
100	COCCn1nnnc1C(c1cc2cccc(C)c2[nH]c1=O)N1CCN(c2ccccc2F)CC1 (stereo not given)	6%
101	O=C(NCc1n[nH]c(=S)n1-c1ccccc1)c1cccs1	7%
102	O=C(CCNC(=O)c1ccc(Br)cc1)NCc1ccncc1	-18%
103	Cc1ccc(NC(=O)CSc2nnc(-c3cc4occc4n3C)n2-c2ccccc2C)cc1F	3%
104	CCOC(=O)c1sc2nc(C3CC3)cc(-c3ccc(F)cc3)c2c1N	9%
105	C=C1CCN(C(C(=O)OC)C(C)C)S(=O)(=O)c2ccccc21 (stereo not given)	7%&-17%

Looked up by structure from the list above, 2 records:
no.	canonical_smiles	VDR inhibitor
92	O=C(COC(=O)CNC(=O)C1CCCCC1)NCc1ccc(Cl)cc1	9%
104	CCOC(=O)c1sc2nc(C3CC3)cc(-c3ccc(F)cc3)c2c1N	9%

Carrying on.
no.	canonical_smiles	VDR inhibitor
106	O=C(NCCS(=O)(=O)N1CCN(c2ccccc2)CC1)c1ccc(Br)o1	-6%
107	C=CCC[C@H](Cc1ccc(F)cc1)C(=O)OC[C@@H](C)NC(=O)[C@@H](CC=C)CC(=O)N[C@H](CO)Cc1ccccc1	7%
108	C[C@H](CO)N1C[C@H](C)[C@H](CN(C)S(C)(=O)=O)Oc2c(cccc2N(C)C)C1=O	-11%
109	Cc1ccc(NC(=O)Cn2nc(-c3ccc(F)cc3)c3cnc4ccc(C)cc4c32)cc1	-1%
110	CC1(C)Cc2c(c(N3CCOCC3)nc3sc4c(NN)ncnc4c23)CS1	-3%
111	COc1ccc(Cl)cc1-c1nc(N)nc(N(C)C)n1	-9%
112	COc1ccc(N2C(=O)C(CN3CCCCC3)C2c2ccccc2)cc1 (stereo not given)	-14%
113	O=C(NCc1ccc(Cl)cc1)c1cc(S(=O)(=O)N2CCCCC2)c[nH]1	-4%&7%
114	O=C(c1cc(C2CC2)nn1-c1ccccc1)N1CCN(Cc2c(F)cccc2Cl)CC1	?
115	COc1ccc(C2c3sc(=O)[nH]c3SC3C(=O)N(c4ccccc4)C(=O)C32)cc1 (stereo not given)	-20%
116	COC(=O)c1cc(NS(=O)(=O)c2ccc3c(c2)CCC(=O)N3)cc(C(=O)OC)c1	-8%
